# Screens (PubChem)
# D2 PAM: potentiates the human D2 dopamine receptor allosterically; P14416; DiscoveRx D2 beta-arrestin cells, luminescence, 90 min; 100% = 57 uM dopamine signal; potentiation, % (no concentration beside the values); 360,000 compounds, 0.23% hits; AID 624464; active = potentiation of 50% or more; inconclusive = 30% to 50%; inactive = 30% or less;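 further: compound concentration not given in the record; tested on top of an EC20 dose of dopamine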
# Target sequence (P14416 whole entry, looked up): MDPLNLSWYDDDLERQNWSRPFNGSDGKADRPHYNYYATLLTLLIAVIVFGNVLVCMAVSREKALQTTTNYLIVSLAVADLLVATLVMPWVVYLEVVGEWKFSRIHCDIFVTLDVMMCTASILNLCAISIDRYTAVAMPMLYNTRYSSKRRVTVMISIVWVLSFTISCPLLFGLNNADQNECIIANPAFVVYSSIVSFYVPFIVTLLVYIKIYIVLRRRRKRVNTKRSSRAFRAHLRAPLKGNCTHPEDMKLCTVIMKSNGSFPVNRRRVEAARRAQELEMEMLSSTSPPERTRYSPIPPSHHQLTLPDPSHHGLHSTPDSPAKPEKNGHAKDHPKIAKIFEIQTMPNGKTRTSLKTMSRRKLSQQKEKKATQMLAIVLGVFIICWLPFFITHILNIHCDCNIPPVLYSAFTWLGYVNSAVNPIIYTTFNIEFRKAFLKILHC
#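 PathHunter D2 cells, attached overnight at 37 deg C, received compound in DMSO plus dopamine at EC20 (50 nM final) for 90 min at 37 deg C. Beta-arrestin recruitment was read as luminescence after 1 h with detection reagent at ambient temperature.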
# D2 agonist: activates the human D2 dopamine receptor | DiscoveRx PathHunter D2 beta-arrestin, luminescence, 90 min; 100% = 57 uM dopamine signal | activation, % (no concentration beside the values) | 360,000 compounds, 0.084% hits | AID 624465; in the data active = activation above about 40%; inconclusive = about 15% to 40%; inactive = below about 15%; further: compound concentration not given in the record; the text of the record calls up to 30% inactive
#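 Agonist mode: compounds alone added to overnight-plated D2 PathHunter cells for 90 min at 37 C, with 57 uM final dopamine (EC100) defining full response. Beta-arrestin recruitment detected by chemiluminescent reagent, read after 1 h at ambient temperature.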
# PINK1 modulator: PINK1 expression modulation; PINK1 immunofluorescence, high-content cytometry, 24 h; Potency, µM (titrated, usually from 76.6 µM), inactives show top-dose activation (PINK1 increase), actives largely listed as activators; 410,000 compounds, 0.2% hits; active = well fitted activation curve with a large enough effect; inconclusive = small, poorly fitted or top-dose-only effect; inactive = flat fitted curve, though single readings scatter; cell line not stated here;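 further: potency means the concentration at half of the fitted maximal effect; % of control where 0% means no effect; nearly all actives have a fitted effect of over 65% in size; a mitochondrial uncoupler was the plate control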
#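 PINK1 protein level read as immunofluorescence by microplate cytometer in a fixed, stained stable cell line after 24 h exposure to five compound concentrations, with CCCP as control.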
# TRPML1 ag: human mucolipin-1 channel agonism | activation, % (concentration not given with the values) | TRPML1-expressing cells, Ca2+ dye fluorescence, FDSS; host cell line not named in the record; reference of the full effect not given here | 410,000 compounds, 0.12% hits | Q9GZU1; in the data active = activation above about 50%; inconclusive = about 30% to 50%; inactive = below about 30%; further: 0% is about no effect; the text of the record puts the active cut at 80%
# Target sequence (Q9GZU1 whole entry, looked up): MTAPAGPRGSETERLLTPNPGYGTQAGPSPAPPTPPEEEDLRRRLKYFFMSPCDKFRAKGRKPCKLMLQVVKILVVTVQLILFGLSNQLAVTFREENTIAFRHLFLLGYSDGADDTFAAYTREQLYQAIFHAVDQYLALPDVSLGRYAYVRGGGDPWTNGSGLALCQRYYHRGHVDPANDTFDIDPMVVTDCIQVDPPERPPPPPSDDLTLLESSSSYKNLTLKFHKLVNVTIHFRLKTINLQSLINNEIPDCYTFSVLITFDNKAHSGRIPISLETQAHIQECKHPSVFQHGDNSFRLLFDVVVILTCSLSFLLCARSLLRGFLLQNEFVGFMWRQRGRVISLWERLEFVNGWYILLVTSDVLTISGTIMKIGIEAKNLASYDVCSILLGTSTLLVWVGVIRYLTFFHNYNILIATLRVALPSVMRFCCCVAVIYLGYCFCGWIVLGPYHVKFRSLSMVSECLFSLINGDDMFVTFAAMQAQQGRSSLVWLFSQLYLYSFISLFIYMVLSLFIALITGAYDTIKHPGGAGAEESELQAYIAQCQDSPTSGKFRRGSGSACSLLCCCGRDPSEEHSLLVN
#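 Tetracycline-induced TRPML1-DL cells are seeded and incubated overnight before loading with a no-wash Ca2+ dye and quencher. Agonist activity is taken from the 110 s fluorescence read following compound pin-transfer on an FDSS, before EC80 54-4 challenge.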
# TRPML1 inh: inhibitors of human TRPML1 channel. Q9GZU1. TRPML1-inducible cells, Ca2+ dye fluorescence, FDSS; hits give low values; inhibition of EC80 agonist-evoked calcium signal. activity change, negative = inhibition, % (test concentration not listed). 390,000 compounds, 0.02% hits. AID 624415; in the data active means activity change below about -50%; inconclusive means about -30% to -50%; inactive means above about -30%;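 further: stimulus is agonist 54-4 at its EC80 concentration; on the % scale 0 is the no-effect control and ±100 the full control effect; compound concentration not given in the record; the text of the record puts the active cut at -80%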
#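 Tet-induced TRPML1-DL cells loaded with Ca8 no-wash calcium dye were read kinetically on FDSS. Compound addition was followed by EC80 agonist 54-4 (4 uM final); inhibition was read over 110 s.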
# Six1-Eya2 inh: blocks human Six1 binding to Eya2; Q15475+O00167; AlphaScreen GST-Six1/His-Eya2 binding, biochemical; hits give low values; control for the full effect not named in the record; activity change, % (concentration not given with the values); 360,000 compounds, 0.56% hits; AID 651725; in the data active = activity change below about -65%; inconclusive = about -30% to -65%; inactive = above about -30%; further: on the % scale 0 is the no-effect control and ±100 the full control effect
#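 AlphaScreen with GST-Six1 and His-Eya2 (5X mix: 250 nM and 500 nM), glutathione donor and nickel acceptor beads; buffer 50 mM Tris pH 8.0, 300 mM NaCl, 1 mM TCEP; 1 h at 37 C in the dark.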
# * = called active by the depositor; ? = inconclusive; . = no result given; & = joins results of further samples; [ ] = another dose, or the depositor's remark.
SMILES,D2 PAM,D2 agonist,PINK1 modulator,TRPML1 ag,TRPML1 inh,Six1-Eya2 inh
CC1=C(C(=O)N(C)Cc2ccccc2)C2(CCC(C)CC2)OC1=O (stereo unspecified),-0.9,-4.5,2.0%,-0.1,7.5,-0.1
COc1cccc(NC(=O)c2cc3c(=O)n(Cc4cccnc4)ccc3nc2C)c1,.,.,0.8%,0.4,?,.
O=C(CN1CCCCC1)n1c2ccccc2c2ccccc21,-14.2,-4.4,10.1%,0.1,2.1,-0.8
CCCCOc1ccccc1/C=N/NC(=O)CC#N,-6.7,4.0,0.6%,0.9,-18.0,2.7
COCCN(C(=O)c1cc(-c2ccco2)nc2ccccc12)c1c(N)n(Cc2ccccc2)c(=O)[nH]c1=O,-3.0,-1.8,0.8%,0.0,-2.2,-5.9
O=C(c1cc(-c2ccccc2)on1)N1CCN(c2ccccc2)CC1,-7.2,5.0,4.0%,1.1,-13.5,-0.4
COc1cc(N)ccc1C(=O)O,-7.3,0.4,-1.2%,-0.7,22.7,8.3
O=S(=O)(c1ccc(NC(=S)N/N=C/c2ccc(N3CCOCC3)cc2)cc1)N1CCOCC1,-13.9,0.0,3.0%,0.1,-17.4,-11.9
CCCn1c(N)c(Br)c(=O)[nH]c1=O,-4.0,-9.6,0.1%,0.4,-1.1,3.1
Cc1ccc(Cl)c(OCC(=O)N2CCc3ccccc3C2)c1,-1.9,-5.9,4.4%,2.4,9.6,8.3
O=C1C=C(Nc2ccccc2)c2ccccc2C1=O,29.0,4.7,-4.2%,1.2,2.5,18.0
CCN(CC)CCNC(=O)c1ccc(NC(=O)COc2ccccc2F)cc1,-12.9,0.1,-0.1%,0.4,16.6,6.2
Cc1ccc(OCC(=O)c2cc(C)c(C)cc2C)c([N+](=O)[O-])n1,-11.8,1.5,-1.6%,1.6,15.0,-3.6
COCCn1nnnc1C(c1ccccc1OC)N1CCN(c2ccccc2)CC1 (stereo unspecified),-19.6,-0.7,1.0%,2.4,4.3,-8.9
CC(C)(C)NC(=O)COC(=O)c1cc(Br)ccc1Cl,1.8,-1.8,0.8%,-1.0,-5.9,-2.0
COc1ccc(N/N=C(/N=Nc2nc(C)cc(=O)[nH]2)c2ccccc2)cc1,-20.3,-5.6,0.3%,-0.3,5.1,?
CCc1sc2nc(SCC(=O)Nc3cc(C)on3)n(-c3cccc(OC)c3)c(=O)c2c1C,-17.7,-3.8,1.0%,-1.5,-8.2,10.3
C/C(=N\NC(=O)C(c1ccccc1)c1ccccc1)c1ccccn1,-36.9,-9.7,3.5%,1.1,16.8,-12.3
C=CCNC(=O)c1ccccc1NC(=O)c1ccccc1,-8.5,4.7,3.7%[38.3 µM],5.0,16.9,3.2
CCC(c1nnnn1-c1c(C)cccc1C)N1CCN(c2cccc(C(F)(F)F)n2)CC1 (stereo unspecified),.,.,3.1%,-0.3,.,2.2
NC(Cc1ccc(Cl)cc1)c1csc(Nc2cc(NCCCO)ncn2)n1 (stereo unspecified),-9.9,7.0,0.0%,-0.5,.,-69.6*
O=C(COC(=O)CC1CCCC1)Nc1ccc(OC(F)F)cc1,1.0,-2.2,2.9%,0.5,-17.6,5.0
O=C(COc1ccccc1)Nc1ccc(S(=O)(=O)N2CCCCCC2)cc1,0.0,0.6,-4.2%,-0.9,-0.8,-3.0
O=C(O)Cn1ccc2cc(S(=O)(=O)N3CCCCC3)ccc21,-3.4,-1.0,4.0%,0.1,18.4,1.8
Clc1ccc2c(c1)c1cc(Cl)ccc1n2CN1CCOCC1,-1.9,3.3,7.7%,1.5,6.7,19.0
O=C(CSC1=Nc2ccccc2C2=NC(CC(=O)NCc3ccco3)C(=O)N12)NCc1ccco1 (stereo unspecified),-17.5,-2.4,.,0.0,-8.8,-23.4
CNc1ccc(-c2nc(-c3ccco3)no2)cc1[N+](=O)[O-],.,.,-0.1%,-1.0,-29.3,.
O=C(COC(=O)Cc1c(Cl)cccc1Cl)NCC1CCCO1 (stereo unspecified),1.9,-2.1,0.2%,-0.4,-2.9,0.8
Nc1[nH]c(C(=O)c2ccccc2)c(-c2ccccc2Br)c1C(=O)NCCc1c[nH]c2ccccc12,.,.,0.6%,-0.5,.,-15.5
COc1ccc(-c2cn3cccnc3n2)cc1,0.8,-0.5,-0.1%,0.1,3.8,-2.6
CC(=O)C[C@H](O)CC(=O)[C@H]1OC(=O)CCCCCc2ccccc21,-3.0,-0.1,-0.1%,-0.2,-6.8,4.3
C=CCn1c(-c2cccn(Cc3cccc(Cl)c3)c2=O)n[nH]c1=S,-18.4,-1.3,-0.2%[38.3 µM],-0.4,22.6,3.0
Nc1cccc(-c2cncc(N3CCN(Cc4ccccn4)CC3)n2)c1,-9.1,6.2,-0.4%,-0.6,.,-10.3
COc1ccc(OC)c(C2C(C(=O)Nc3ccc(C)cc3)=C(C)Nc3nnnn32)c1 (stereo unspecified),.,.,4.1%,1.1,-15.5,.
CC(C)(C)n1ncc2c(=O)n(CC(=O)N3CCCCCC3)cnc21,-17.4,-2.5,-1.0%,0.0,-14.6,1.8
Cc1ccc(NC(=S)Nc2ccc(Cl)c(Cl)c2)c(OC(F)F)c1,-39.9,-10.7,?,-1.8,13.3,-7.2
O=C(CSc1nnc(-c2ccco2)n1-c1ccccc1)NCc1ccc2c(c1)OCO2,-5.6,4.4,-2.6%[38.3 µM],-0.6,-7.0,-1.3
Cn1c(SCC(=O)NCCc2ccccc2)nnc1-c1ccncc1,1.3,-1.5,0.7%,0.6,-9.1,4.8
CCO[C@H]1OC(C(=O)N2CCN(Cc3ccc4c(c3)OCO4)CC2)=C[C@@H](c2ccc(C(F)(F)F)cc2)[C@@H]1CCCO,-13.5,0.9,20.8%,0.7,-3.9,-8.0
CCOc1cc(/C=N/NC(=O)Nc2ccccc2)ccc1O,-10.0,-1.5,-0.7%,0.9,-6.2,?

# Reprinted at random: 2 compounds from above.
SMILES,D2 PAM,D2 agonist,PINK1 modulator,TRPML1 ag,TRPML1 inh,Six1-Eya2 inh
CCOc1cc(/C=N/NC(=O)Nc2ccccc2)ccc1O,-10.0,-1.5,-0.7%,0.9,-6.2,?
Cc1ccc(NC(=S)Nc2ccc(Cl)c(Cl)c2)c(OC(F)F)c1,-39.9,-10.7,?,-1.8,13.3,-7.2

# Following part:
SMILES,D2 PAM,D2 agonist,PINK1 modulator,TRPML1 ag,TRPML1 inh,Six1-Eya2 inh
CC1CN(C(=O)c2ccccc2OCc2ccc(Cl)cc2Cl)CC(C)O1 (stereo unspecified),-1.8,-2.7,4.0%,1.5,-10.2,8.0
CCCNC(=O)OCCC12CC3CC(CC(C3)C1)C2,-4.8,-8.3,?,3.6,26.9,10.6
Cc1c2cnn(-c3ccccc3)c(=O)c2c(C)n1CC(=O)N1CCN(c2ccc(F)cc2)CC1,.,.,0.6%,-1.2,-22.1,.
COc1ccc(OC)c(S(=O)(=O)NCCC2=CCCCC2)c1,-6.5,1.7,-1.0%[38.3 µM],6.3,4.3,1.8
Cc1nnc(NC(=O)c2nc(S(=O)(=O)Cc3ccccc3)ncc2Cl)s1,-3.7,-1.6,-2.0%&-1.5%,-0.4&-0.4,2.4&1.1,-9.2
O=C(CCCSc1nc(-c2ccco2)cc(C(F)(F)F)n1)Nc1ccc2c(c1)OCO2,-7.1,-1.7,-2.9%,3.2,33.7,-11.9
CC(C)(Oc1ccc(Cl)cc1)C(=O)OCC(=O)N1CCN(c2ccccc2)CC1,11.6,0.1,-0.8%,1.5,-2.1,-4.4
COC(=O)C1C2C=CC3(CN(CCc4ccccc4)C(=O)C13)O2 (stereo unspecified),-12.7,-2.3,2.9%,0.8,1.0,6.4
Cn1c(CNC(=O)C(Cc2ccccc2)NC(=O)c2cccc(F)c2)cc(=O)n(C)c1=O (stereo unspecified),-3.6,-3.0,-0.1%,-0.1,1.1,3.7
Cc1ccc(S(=O)(=O)N2CC3CCCC2C3)cc1 (stereo unspecified),0.3,-0.2,1.4%,1.1,23.5,8.0
CCOc1ccc(OCC)c(NC(=O)CN2CCN(C(=O)c3ccco3)CC2)c1,-1.4,0.3,-0.4%,-1.0,7.8,-3.0
Cc1c(C(=O)Nc2c(N)nc(SCC(=O)NCC3CCCO3)[nH]c2=O)cccc1[N+](=O)[O-] (stereo unspecified),13.4,0.0,0.8%,0.4,12.0,-6.9
CSc1ncccc1C(=O)NCCc1ccc(S(N)(=O)=O)cc1,-5.2,2.3,-1.0%,0.4,-4.8,5.7
COc1cc(C2C(C(C)=O)=C(O)C(=O)N2c2ccc(Br)cn2)ccc1O (stereo unspecified),0.5,-0.2,1.4%,0.2,2.3,-1.1
CCOC(=O)c1c(NC(=O)Cn2nc(C(=O)O)c3ccccc3c2=O)sc(C)c1C,0.9,-1.2,0.0%,0.4,-11.2,7.8
O=c1[nH]cnc2cc(-c3ccccc3)sc12,-18.5,-1.5,-2.5%,0.0,11.3,?
COc1cc([N+](=O)[O-])ccc1NC(=O)COC(=O)c1n[nH]c2ccccc12,-1.8,-4.8,4.4%,-0.6,-4.4,-4.8
CCN(CC)S(=O)(=O)c1cccc(NC(=S)NC(=O)/C=C/c2ccc(S(=O)(=O)N3CCOCC3)cc2)c1,-6.6,-7.0,3.0%,0.2,4.9,-0.1
CCCc1nc2oc3c(NCCCN(C)C)ncnc3c2c2c1CCCC2,-13.6,-3.6,-0.1%,0.4,14.4,-2.5
CCOc1ccc(C(CC(=O)O)NC(=O)c2cccs2)cc1OC (stereo unspecified),-6.1,-6.5,0.1%,-0.7,-1.9,7.2
COc1cnc(SC)nc1Nc1ccc(C#N)cc1,-0.7,6.1,1.4%,-0.5,24.4,-17.6
COc1ccc(C2C(C#N)=C(N)N(c3sc4c(c3C#N)CCCC4)C3=C2C(=O)CC(C)(C)C3)cc1 (stereo unspecified),-1.6,-1.0,6.9%,0.1,1.4,-10.9
COc1ccc(CNC(=O)c2ccc(CS(=O)(=O)c3ccccc3C)o2)cc1,-0.1,2.3,-2.1%,-0.5,-8.5,-0.5
Cc1ccc(-c2csc(NC(=O)c3cccc([N+](=O)[O-])c3C(=O)O)n2)cc1,2.4,-2.9,4.1%,-0.3,0.1,-2.5
COc1ccc(OCC(=O)OCC(=O)NCc2ccc(F)cc2)cc1,2.9,-0.4,-0.1%,0.0,21.7,8.9
Clc1ccc(OCc2nc(-c3ccc(Br)o3)no2)cc1,4.0,2.8,4.5%,0.1,-9.5,10.8
COc1cccc(C2CC(=O)NC(SC)=C2C#N)c1 (stereo unspecified),-3.0,-1.9,3.6%,-0.5,-13.6,-2.8
CN(C)CCN(Cc1cc2cc3c(cc2nc1Cl)OCO3)C(=O)c1ccco1,0.2,3.8,2.6%,0.1,-27.5,2.1
CN(C)c1ccc(/C=N\Nc2ccccn2)cc1,4.7,4.3,2.3%,-1.4,6.0,?
CCCS(=O)(=O)N1CCN=C1SCc1cccc2ccccc12,-4.5,-0.3,0.6%,0.5,-7.4,5.1
Cc1cc2c(ncn2C(C)C)c(N)c1C,6.8,-1.3,.,-0.3,1.7,-2.1
Cc1cc(NC(=O)CCN2C(=O)/C(=C/c3ccccc3Cl)SC2=S)no1,11.4,-3.4,9.2%,-0.5,7.4,8.5
Cc1ccc2c(C)nc(/N=C(\N)NC(=O)N3c4ccccc4Sc4ccccc43)nc2c1,12.0&29.2,0.1&3.7,5.4%&6.1%,1.2&-0.3,-1.7&-14.2,8.2&-2.5

# Outcome played no part in choosing rows, and some 1% of all compounds hit somewhere here.
